Screening data: PubChem, National Center for Advancing Translational Sciences (NCATS)
PINK1 modulator: changes PINK1 expression | AID 624263 | 410,000 tested, 0.2% active | Potency, µM (top dose mostly 76.6 µM), without a hit: top-dose activation (PINK1 increase), usual class: activators | PINK1 immunofluorescence, high-content cytometry, 24 h; active = well fitted activation curve with a large enough effect; inconclusive = small, poorly fitted or top-dose-only effect; inactive = flat fitted curve, though single readings scatter; cell line not stated here;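 note: potency is the fitted concentration of half-maximal effect; % of control where 0% means no effect; nearly all actives have a fitted effect of over 65% in size; a mitochondrial uncoupler was the plate control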
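PINK1 protein level read as immunofluorescence by microplate cytometer in a fixed, stained stable cell line after 24 h exposure to five compound concentrations, with CCCP as control.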
Six1-Eya2 blk: inhibitors of human Six1/Eya2 interaction | Q15475+O00167 | AlphaScreen GST-Six1/His-Eya2 binding, biochemical; active compounds read low; control for the full effect not named in the record | activity change, % (concentration not given with the values) | 360,000 tested, 0.56% active | AID 651725; in the data active = activity change below about -65%; inconclusive = about -30% to -65%; inactive = above about -30%; note: % is set by controls: 0 for no effect and ±100 for the full control effect
Target sequence (O00167 whole entry, looked up): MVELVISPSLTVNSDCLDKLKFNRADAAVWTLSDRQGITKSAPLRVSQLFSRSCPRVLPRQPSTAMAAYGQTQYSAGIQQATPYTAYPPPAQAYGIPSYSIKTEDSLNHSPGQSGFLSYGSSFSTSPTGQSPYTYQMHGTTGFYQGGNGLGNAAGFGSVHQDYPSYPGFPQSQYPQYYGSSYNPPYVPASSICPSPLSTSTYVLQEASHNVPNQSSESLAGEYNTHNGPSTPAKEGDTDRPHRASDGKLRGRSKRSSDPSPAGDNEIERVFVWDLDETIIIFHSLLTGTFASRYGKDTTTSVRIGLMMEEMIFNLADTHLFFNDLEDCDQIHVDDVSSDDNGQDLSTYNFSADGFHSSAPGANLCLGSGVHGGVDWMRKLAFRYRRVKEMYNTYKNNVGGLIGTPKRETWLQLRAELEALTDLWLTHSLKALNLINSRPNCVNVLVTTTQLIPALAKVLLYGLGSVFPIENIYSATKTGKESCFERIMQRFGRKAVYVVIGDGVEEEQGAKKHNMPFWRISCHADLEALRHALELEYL
Target sequence (Q15475 whole entry, looked up): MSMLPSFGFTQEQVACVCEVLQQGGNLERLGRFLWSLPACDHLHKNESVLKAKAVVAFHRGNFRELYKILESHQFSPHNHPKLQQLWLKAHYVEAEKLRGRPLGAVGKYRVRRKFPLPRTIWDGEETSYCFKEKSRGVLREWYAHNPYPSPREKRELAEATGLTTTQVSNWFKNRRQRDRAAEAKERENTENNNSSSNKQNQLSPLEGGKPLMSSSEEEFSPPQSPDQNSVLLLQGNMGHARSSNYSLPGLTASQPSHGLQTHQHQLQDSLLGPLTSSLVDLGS
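AlphaScreen luminescence read after one hour at 37 °C in darkness. Pin-transferred compounds met GST-Six1 and His-Eya2 protein (5X stock 250 nM/500 nM) plus glutathione donor and Ni-chelate acceptor beads (5X, 50 ug/mL).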
D2 agonist: activates the human D2 dopamine receptor. DiscoveRx PathHunter D2 beta-arrestin, luminescence, 90 min; 100% = 57 uM dopamine signal. 360,000 tested, 0.084% active. activation, % (no concentration beside the values). P14416. AID 624465; in the data active = activation above about 40%; inconclusive = about 15% to 40%; inactive = below about 15%; note: compound concentration not given in the record; the text of the record calls up to 30% inactive
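Agonist mode: compounds alone added to overnight-plated D2 PathHunter cells for 90 min at 37 C, with 57 uM final dopamine (EC100) defining full response. Beta-arrestin recruitment detected by chemiluminescent reagent, read after 1 h at ambient temperature.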
Sfp PPTase inh: Sfp phosphopantetheinyl transferase inhibition; Biochemical Sfp PPTase activity, qHTS; Potency, µM, inactives show max response, negative = inhibition, actives largely listed as inhibitors; 310,000 tested, 3.5% active; AID 1490; active = well fitted inhibition curve with a large enough effect; inconclusive = small, poorly fitted or top-dose-only effect, or another doubt; inactive = no such curve, though single readings can be large or run the other way;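 note: the enzyme is Sfp with the accession as filed and its product quenches rhodamine fluorescence; potency is the fitted concentration of half-maximal effect; 0% = enzyme reaction without inhibitor and -100% = no enzyme wells; top concentration of the series not given in the record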
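With Hepes-Na pH 7.6 buffer containing 10 mM MgCl2, Sfp (15 nM) modified BHQ-2-YbbR (12.5 uM) using rhodamine-CoA (5 uM). Two reads 30 minutes apart at 525/598 nm yielded each well's rate.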
TRPV1 potentiator: human TRPV1 potentiation; Q8NER1; TRPV1-expressing cells, Fluo-8 calcium influx, capsaicin EC20 potentiation; host cell line not named in the record; control for the full effect not named in the record; potentiation, % at 8.33 µM; 320,000 tested, 0.02% active; AID 540277; active means potentiation above 80%; inconclusive means 30% to 80%; inactive means below 30%; note: 0% is about no effect
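TRPV1-expressing cells were cultured overnight at 35.5C and loaded with Fluo-8 calcium dye for 40 to 90 min at room temperature. After a 10 s baseline, compound was added and calcium influx was read kinetically for 3 min (ex 480/em 520 nm).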
D2 potentiator: potentiates the human D2 dopamine receptor allosterically; P14416; DiscoveRx D2 beta-arrestin cells, luminescence, 90 min; 100% = 57 uM dopamine signal; potentiation, % (no concentration beside the values); 360,000 tested, 0.23% active; AID 624464; active = potentiation of 50% or more; inconclusive = 30% to 50%; inactive = 30% or less;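 note: compound concentration not given in the record; tested on top of an EC20 dose of dopamine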
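D2 cells co-treated with compound plus 50 nM dopamine (EC20) for 90 min at 37 deg C to detect potentiation. Beta-arrestin recruitment was read as enzyme-fragment luminescence after 1 h at ambient temperature. Full response was set by 57 uM dopamine.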
CtBP-E1A inh: CtBP/E1A binding inhibition. 340,000 tested, 0.49% active. AlphaScreen GST-E1A/His-CtBP binding, 1536-well; active compounds read low; control for the full effect not named in the record. activity change, % (no concentration beside the values); in the data active means activity change below about -65%; inconclusive means about -30% to -65%; inactive means above about -30%; note: % is set by controls: 0 for no effect and ±100 for the full control effect
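GST-E1A and His-tagged CtBP (125 nM each as 5X stock) were preincubated with pin-transferred compound for 2 h at 37 °C in the dark, then glutathione donor and nickel acceptor beads were added for 1 h before AlphaScreen reading.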
Starred values were filed as active, the others as inactive; ? = inconclusive; / = not tested or not shown; & = joins results of further samples; [ ] = another dose, or the depositor's remark. Compounds were not picked by outcome (roughly 3.7% active in at least one column).

Molecule	PINK1 modulator	Six1-Eya2 blk	D2 agonist	Sfp PPTase inh	TRPV1 potentiator	D2 potentiator	CtBP-E1A inh
CCOc1ccc(N(CC(=O)NCCSc2ccccn2)S(=O)(=O)c2ccc(Cl)cc2)cc1	0.5%	14	-2.6	3%	-11	-8	21
CC(C)CC(=O)NC(=S)NCc1ccccc1	7.5%	-12	-1.0	11%	-25	-8	10
CC(C)C(=O)NC(=S)Nc1ccc(S(=O)(=O)NC(C)(C)C)cc1	0.9%	3	-0.8	-1%	17	-1	5
CC1CCN(C(=O)Cn2nnc(-c3ccc(C(C)C)cc3)n2)CC1	0.9%	-6	-0.3	18%	-18	-3	/
C[n+]1ccn(CC(=O)c2ccc(Cl)cc2)c1	-1.1%	6	-2.4	-4%	13	-10	4
COc1cc(Cl)ccc1OCc1cc(C(=O)NCCCN2CCCC2=O)no1	2.1%	3	-0.9	6%	-5	-8	-1
CC(O)CN1CCN(C(=O)CN2C(=O)NC(c3ccccc3)(c3ccccc3)C2=O)CC1 (stereo not given)	0.9%	-5	-11	7%	-4	-11	10
COc1cc(OC)cc(-c2n[nH]c(=S)n2-c2ccc3c(c2)OCCO3)c1	1.4%	-9	10	-22%	4	-10	-6
Cc1cc(Br)ccc1NC(=O)C1CCN(S(=O)(=O)c2cnc[nH]2)CC1	1.6%	2	0.9	10%	-2	-3	5
COCCN(C(=O)C(F)(F)F)C(C(=O)NC1CCCCC1)c1ccco1 (stereo not given)	1.8%	3	-0.7	-5%	-12	-3	5
Cc1ccc2c(c1)NC(=O)C(CC(=O)Nc1ccc(CN3CCC(C)CC3)cc1)O2 (stereo not given)	1.1%	0	-5.4	10%	20	-10	-2
CCOC(=O)Nc1ccc2c(c1)N(C(=O)CCCl)c1ccccc1[S@]2=O	-0.7%	-5	-3.5	8%	3	-2	1
Cc1ccc(COc2coc(CO)cc2=O)cc1	3.5%	9	-0.8	29%	5	0	-2
O=C(Nc1cc2c(ccc3ccccc32)oc1=O)C1CCCCC1	?	2	-2.0	6%	-5	-2	6
CCn1c(C(=O)NC2CCC(C)CC2)cc2sccc21 (stereo not given)	1.8%	-8	5.0	19%	-6	-6	/
COc1ccc(C(=O)NC2(C(F)(F)F)N=C3SCCN3C2=O)cc1 (stereo not given)	3.8%[38.3 µM]	0	-0.5	20%	10	0	3
Cc1ccc(S(=O)(=O)N(C)c2ccc(OC(=O)CN3C(=O)NC4(CCCC4)C3=O)cc2)cc1C	5.9%	4	-2.1	/	8	21	-1
CC1CCN(C(=O)CSc2nc3[nH]ncc3c(=O)[nH]2)CC1	1.5%	-5	-3.4	9%	15	-1	-12
CC(C)(C)c1ccc(C(=O)O)c(C(=O)c2ccccc2)c1	3.9%	13	-1.7	4%	12	-39	0
Cc1ccsc1/C=N\NC(=O)CC(=O)NCc1ccccc1	-0.1%	3	0.4	10%	17	-6	/
Cn1c(SCC(=O)N2CCCc3ccccc32)nnc1-c1ccccc1	/	5	0.5	0%	14	-2	11
CC1CC(C)CN(C(=O)CCC(=O)Nc2nnc(C(C)C)s2)C1 (stereo not given)	-1.1%	6	0.7	11%	-7	7	0
COC(=O)c1c(C)nc2c(c(SC)nn2-c2ccccc2)c1N	-0.5%	-1	-6.6	6%	16	-9	-3
N#Cc1c(Cl)cccc1N1CCSCC1	-1.2%	17	4.0	/	/	-8	15
O=C(Nc1ccc(F)cc1F)c1ccc(COc2c(F)c(F)cc(F)c2F)o1	5.9%[38.3 µM]	31	0.8	9%	-12	-6	114
COc1ccc(C(NC(=O)c2c(F)c(F)c(F)c(F)c2F)c2ccccc2)cc1 (stereo not given)	-3.7%	4	-1.5	18%	-7	-4	4
O=C(NCc1cccnc1)c1ccc(CN2CCc3ccccc3C2)cc1	-0.1%	-1	-0.2	14%	10	-30	-1
COc1ccc(C(=O)OCC(=O)Nc2ccc([N+](=O)[O-])cc2OC)c(O)c1	14%	2	1.7	18%	-7	4	4
COc1cc(/C=N/n2c(C3CCCCC3)n[nH]c2=S)cc(Br)c1O	-0.3%	2	1.1	9%	4	-1	2
O=c1[nH]cnc2c1ncn2-c1ccc(N(CCO)CCO)cc1	-5.1%	3	2.2	/	/	-17	0
CC1=C(C#N)C(c2cccnc2)C2=C(N1)c1ccccc1C2=O (stereo not given)	1.7%	9	-1.8	16%	-15	-15	1
COc1ccc(C(=O)Nc2ccc(S(=O)(=O)N3CCCCC3C)cc2)c(OC)c1OC (stereo not given)	?	?	1.0	?	4	-16	?
CC(C)NC(=O)CC(=O)NN=C1CCCCC1	1.5%	-1	0.1	3%	4	-2	0
COc1ccc(OC2C(=O)N(c3cc(C)ccc3C)C2c2ccc(OC)c(OC)c2)cc1 (stereo not given)	-0.6%	6	2.5	2%	8	-5	0
COC(=O)C1CCC(=O)N1C(c1ccc(OC)cc1)c1cc(OC)c(OC)c(OC)c1 (stereo not given)	14%	-1	1.3	/	/	2	6
CCN(CC(=O)Nc1ccc2c(c1)OCCO2)Cc1cc(=O)oc2cc(C)c(C)cc12	0.8%[38.3 µM]	-1	0.1	-3%	-30	-11	1
CCOC(=O)CCCCCC(=O)Nc1ccc2c(c1)C(=O)N([C@H](C)CO)C[C@@H](C)[C@@H](CN(C)C(=O)CCC(F)(F)F)OCCCC[C@H](C)O2	2.3%	-9	-3.1	/	/	-3	-1
COc1cc(NC(=O)COC(=O)/C=C/c2ccccc2Cl)cc(OC)c1	0.5%	8	0.1	1%	-3	-21	1
O=C(NCc1ccc(F)cc1)C(c1ccc(Cl)cc1)N(C(=O)c1csnn1)C1CC1 (stereo not given)	2.3%	9	2.5	6%	30	-4	5
O=C(NCCN1CCOCC1)c1ccc(CS(=O)(=O)c2ccc(Br)cc2)o1	2.0%	10	-4.1	/	/	1	-14
CC1(C)Cc2cccc(OCC(=O)OCC(=O)NCc3ccccc3)c2O1	-1.6%	2	-4.0	0%	-5	-4	-17
Cc1ccc2cccc(S(=O)(=O)n3nc(C)cc3C)c2n1	5.7%[38.3 µM]	1	2.0	-7%	-2	3	8
Cc1ccccc1N(C(=O)c1ccccn1)C(C(=O)NCc1ccccc1)c1cccnc1 (stereo not given)	0.3%	6	0.4	24%	19	-3	7
NCCCC[C@@H]1NC(=O)[C@H](CCC(=O)O)NC(=O)c2cc([N+](=O)[O-])cc(I)c2NCC[C@@H](C(N)=O)NC1=O	1.7%	-2	-0.4	32µM*	17	-16	-1
Cn1c(=O)[nH]c(=O)c2c1nc(SCC(O)CCl)n2Cc1ccccc1 (stereo not given)	3.7%	7	-7.3	40µM*	0	-5	-3
Cc1ccc(S(=O)(=O)N2CCOCC2)cc1NC(=O)CNCc1ccccc1Cl	2.6%	12	8.3	/	-3	14	1
Cc1c(NC(=O)Nc2cccs2)cccc1[N+](=O)[O-]	1.8%	-6	-5.4	50µM*	-14	-17	-5
CCc1ccc(Nc2ncnc3nc[nH]c23)cc1	-1.4%	16	-2.7	10%	-18	15	-1
COc1cc(C(C)=O)ccc1Oc1ncnc2c1cnn2-c1cccc(Cl)c1	7.1%	6	0.4	6%	10	-3	6
CCCc1ncc(C[n+]2ccccc2C)c(N)n1	0.8%	0	2.3	-51%&-3%	-2	0	7

Some of the entries above in a different format:
O=c1[nH]cnc2c1ncn2-c1ccc(N(CCO)CCO)cc1
- PINK1 modulator: -5.1%
- Six1-Eya2 blk: 3
- D2 agonist: 2.2
- Sfp PPTase inh: /
- TRPV1 potentiator: /
- D2 potentiator: -17
- CtBP-E1A inh: 0

CC1=C(C#N)C(c2cccnc2)C2=C(N1)c1ccccc1C2=O (stereo not given)
- PINK1 modulator: 1.7%
- Six1-Eya2 blk: 9
- D2 agonist: -1.8
- Sfp PPTase inh: 16%
- TRPV1 potentiator: -15
- D2 potentiator: -15
- CtBP-E1A inh: 1

COc1ccc(C(=O)Nc2ccc(S(=O)(=O)N3CCCCC3C)cc2)c(OC)c1OC (stereo not given)
- PINK1 modulator: ?
- Six1-Eya2 blk: ?
- D2 agonist: 1.0
- Sfp PPTase inh: ?
- TRPV1 potentiator: 4
- D2 potentiator: -16
- CtBP-E1A inh: ?

CC(C)NC(=O)CC(=O)NN=C1CCCCC1
- PINK1 modulator: 1.5%
- Six1-Eya2 blk: -1
- D2 agonist: 0.1
- Sfp PPTase inh: 3%
- TRPV1 potentiator: 4
- D2 potentiator: -2
- CtBP-E1A inh: 0

(more compounds)
Molecule	PINK1 modulator	Six1-Eya2 blk	D2 agonist	Sfp PPTase inh	TRPV1 potentiator	D2 potentiator	CtBP-E1A inh
CSC(=NS(=O)(=O)c1ccccc1)NNC(=O)c1c(-c2c(Cl)cccc2Cl)noc1C	0.4%	4	8.5	/	/	-3	3
CCCCCCC1C(C#N)=C(N)OC2=C1C(=O)CCC2 (stereo not given)	-0.1%	5	-3.0	-3%	4	-5	4
CC#CCN(CC#CC)S(=O)(=O)c1ccc(-n2cnnn2)c(OC)c1	-0.8%	-1	-4.4	-12%	4	-2	8
Fc1cccc(NC(=S)NCCc2ccccc2)c1	2.1%	-1	-0.6	-3%	-29	-6	0
Cc1nc2ccc(S(=O)(=O)NCC(=O)N3CCCCC3)cc2s1	-1.0%	12	-2.2	4%	?	-9	6
